Screening results (PubChem BioAssay)
Calb FLC: affects C. albicans growth with fluconazole; C. albicans CaCi-2 (fluconazole-resistant clinical isolate) + fluconazole, Alamar Blue growth, 48 h; growth inhibition, % (test concentration not listed); actives 0.57% (n = 300,000); AID 1979;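 active = most replicates above 75%; inconclusive = exactly half above 75%; inactive = most below 75%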;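 also: all wells also contain fluconazole at 8 µg/ml as a sub-toxic cotreatment; 0% = median of DMSO wells and 100% = median of geldanamycin control wells; wells of about 8 µL received 7.5 nL stock; the first replicate is given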
T cruzi inh: T. cruzi replication inhibition; T. cruzi beta-gal in NIH3T3, luminescence, 90 h; inhibition, % (test concentration not listed); actives 1.4% (n = 300,000); AID 1885;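 active = mean inhibition across valid replicates above about 55%, limit read from the data; inconclusive = mean below that limit but half or more replicates reach it; inactive = mean below it, under half of replicates reach it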;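 also: signal also drops with host cell toxicity which is not excluded here; 0% = plate median of DMSO wells and 100% = zero luminescence signal; higher percent means less beta-gal luminescence so fewer parasites; stock transfer was 50 nL into about 50 µL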
Beta cell apopt: blocks beta cell apoptosis; actives 0.8% (n = 300,000); protection from apoptosis, % (no concentration beside the values); INS-1E cytokine-induced death, ATP luminescence, 48 h; percent of positive-control rescue, neutral wells zero;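 active = all replicates at 75% or more, or half of them and the mean; inconclusive = half reach 75% but not the mean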;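 also: 0% = cytokine-treated negative control wells and 100% = positive control rescue; higher means more ATP so stronger rescue from cytokine killing; wells of about 40 µL received 100 nL stock; the first replicate is given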
Ecoli rRNA inh: inhibits bacterial ribosomal RNA function over humanized ribosomes; E. coli WT GFP vs humanized-ribosome RFP mutants, fluorescence, 24 h; stronger effect = lower value; DMSO median 0, no signal -100; GFP signal change (wild-type ribosome), % (no concentration beside the values); actives 1.6% (n = 350,000); AID 720706;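 active = significant combined selectivity score with lowered wild-type GFP, culture density cut under 30%, mutant RFP and density less affected; inactive = any of these conditions unmet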; also: one replicate is shown; some compounds called inactive have numbers as strong as hits
Vif A3G: HIV-1 Vif–A3G interaction blockers – biochemical, TR-FRET, GST-Vif 1-94, biotin-A3G peptide, dose response retest, primary screen (AID 1117319) | TR-FRET GST-Vif / biotin-A3G peptide binding; higher % means a stronger effect; test concentration not given here; strong numbers were not always called active | inhibition, %, or IC50 in µM where a hit was titrated | actives 0.57% (n = 260,000);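 active = above the screen mean plus three standard deviations and confirmed in dose response; inconclusive = results disagree or hit not tested in dose response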;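 also: Vif residues 1-94 fused to GST binding biotinylated APOBEC3G peptide 110-148; 0% = full assay without inhibitor and 100% = GST in place of GST-Vif; retest series ran down from 100 µM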
MLL AF4-AF9 inh: MLL-AF4/AF9 protein interaction inhibition; P42568; AlphaScreen, biotin-AF4 peptide binding to FLAG-AF9; actives 0.47% (n = 350,000); inhibition, % at 10 µM;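 active = every replicate reaching a set inhibition limit, whatever the replicate mean, cut at about 25% in these data; inconclusive = mean inhibition reaches that limit but some replicates miss it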;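 also: 0% = plate neutral control median and 100% = total signal loss; the record names both 10 and 1 µM as test concentration; the first replicate is given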
Target sequence (P42568 whole entry, looked up): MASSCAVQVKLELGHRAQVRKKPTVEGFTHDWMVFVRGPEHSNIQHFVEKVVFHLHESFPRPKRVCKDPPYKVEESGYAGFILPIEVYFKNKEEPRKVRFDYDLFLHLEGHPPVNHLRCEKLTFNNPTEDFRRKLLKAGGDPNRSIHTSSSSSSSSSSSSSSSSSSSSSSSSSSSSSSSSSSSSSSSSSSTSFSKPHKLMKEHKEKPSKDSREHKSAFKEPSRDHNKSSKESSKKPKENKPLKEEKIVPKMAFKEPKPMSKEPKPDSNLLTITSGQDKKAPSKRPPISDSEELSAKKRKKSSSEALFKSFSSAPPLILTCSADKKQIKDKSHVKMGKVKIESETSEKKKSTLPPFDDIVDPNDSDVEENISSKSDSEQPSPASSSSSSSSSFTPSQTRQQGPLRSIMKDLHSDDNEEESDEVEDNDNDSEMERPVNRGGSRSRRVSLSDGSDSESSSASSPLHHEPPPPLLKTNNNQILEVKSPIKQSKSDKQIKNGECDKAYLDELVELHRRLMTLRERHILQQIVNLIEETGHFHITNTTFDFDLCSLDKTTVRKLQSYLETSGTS
A1 inh: inhibitors of the anti-apoptotic protein A1, read as caspase activation | MEF A1-2A-BIM cells, Caspase-Glo 3/7 luminescence, 3 h; percent of clofoctol response, vehicle zero | caspase activation, % (concentration not given with the values) | actives 0.066% (n = 330,000);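 active = over half of replicate activation scores above 10%, or exactly half above 10 with the replicate mean above 10; inconclusive = replicate mean below 10 yet half the replicates above 10; inactive = over half of replicates below 10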;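 also: wells of about 30 µL received 50 nL stock; many hits fall short of the cut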
RanGTP-Impb inh: disruptors of Ran-importin-beta complex formation – biochemical, FRET, CFP-Ran, YFP-importin-beta, homogeneous, primary screen | cell-free CFP-Ran/YFP-importin-beta FRET ratio | inhibition, % (no concentration beside the values) | actives 1.1% (n = 300,000);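 active = most replicates above 15%; inconclusive = exactly half above 15%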;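 also: 0% = DMSO wells and 100% = Ran loaded with GDP instead of GTP; wells of about 40 µL received 100 nL stock; the first replicate is given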
Ecoli rRNA inh OD600: recorded beside Ecoli rRNA inh, whose call it bears; OD600 change, %; measured here: OD600 growth;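 optical density of the mix in the first replicate; 0 = DMSO median and -100 = no signal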
Ecoli rRNA inh RFP: recorded beside Ecoli rRNA inh, whose call it bears; RFP signal change, %; measured here: RFP humanized mutant strains;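 first replicate; 0 = DMSO median and -100 = no signal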
* = called active by the depositor; ? = inconclusive; . = not tested or not shown; & = joins results of further samples. Some of the compounds tested; the hit share may differ from the screen's.

Second line of a record: T cruzi inh	RanGTP-Impb inh	A1 inh	Ecoli rRNA inh	Ecoli rRNA inh RFP	Calb FLC	Ecoli rRNA inh OD600	MLL AF4-AF9 inh	Vif A3G	Beta cell apopt
COC(=O)C1=C[C@@H](C(=O)OC)[C@@H]2C3=C(C(=O)C2(C)C)[C@H](C)n2c(=O)n(-c4ccccc4)c(=O)n2[C@@H]3C1
  25	-2.3	3.1	5	3.8	2	5	4.0	.	-20
CN(C)S(=O)(=O)c1ccc(NC(=O)CSc2n[nH]c(=O)n2C2CC2)cc1
  -7	0.7	0.0	18	0.9	13	11	-1.8	3%	-8
O=C(/C=C/c1ccc(Cl)cc1)Nc1nccs1
  -15	-1.8	.	8	-3.5	-8	16	0.0	2%	.
Cc1ccc(C(=O)NCc2ccc(Cl)cc2)o1
  -6	2.3	-1.3	.	.	-19	.	.	11%	2
Cn1c(/C=C/c2ccc(Br)cc2)nc2ccccc2c1=O
  0	?	-0.9	11	2.4	.	11	3.6	2%	2
Oc1ccccc1C1CCCCC1c1ccccc1 (centres undefined)
  10	-4.3	?	-51	-13	-9	-72	2.9	-6%	13
C=CCn1c(/N=C/c2ccc(OC)cc2)nc2ccccc21
  0	-3.2	0.6	.	.	24	.	.	-9%	-16
CCC(=S)/C=C1\Sc2ccc3ccccc3c2N1CCCS(=O)(=O)O
  -10	1.0	-1.5	.	.	-2	.	.	17%	5
Cc1ccc2nc(N3CCN(C(=O)c4ccc(F)cc4)CC3)c(C#N)cc2c1
  10	22*	0.1	-4	5.4	25	1	-2.3	.	-2
CCOc1ccc(Nc2cc(C)c3ccccc3n2)cc1
  41	-0.4	0.0	-39	-6.9	-4	-35	7.8	-3%	2
O=C(O)c1ccc(-n2nncc2-c2ccccc2)cc1
  -9	1.9	-0.1	2	-3.6	1	2	-0.8	.	1
Clc1cccc(Cl)c1/C=N\Nc1nccs1
  -26	?	0.5	-31	-17	-5	-37	.	5%	-1
CCCCNC(=S)Nc1cc(S(=O)(=O)N2CCCCC2)ccc1C
  19	0.7	0.8	-3	-2.6	-5	-8	-6.1	1%	1
CCOc1cccc2cc(C(N)=O)c(=NCc3ccccc3)oc12
  -10	2.2	0.4	.	.	10	.	.	11%	-5
NC(=O)CN1C(=O)C2CCCCN2C(=O)c2ccccc21 (centres undefined)
  -6	4.6	-0.5	.	.	6	.	.	0%	0
CC(=O)NC(Cc1cc(C)ccc1C)C(=O)N1CCN(C(=O)c2ccc([N+](=O)[O-])cc2)CC1 (centres undefined)
  9	-1.6	0.0	4	-3.2	2	8	-7.7	.	0
CCCC[n+]1ccc(-c2nc3ccc([N+](=O)[O-])cc3[nH]2)cc1
  -7	6.8	1.1	.	.	7	.	.	26%	-2
CCOc1ccc(CCNC(=O)Cc2ccc(NC3=NC4CS(=O)(=O)CC4S3)cc2)cc1 (centres undefined)
  -10	-0.6	.	2	-4.9	-4	12	-2.2	.	-1
CC(=O)c1ccc(OCC(C)C)c(Cc2c(O)nc(N)[nH]c2=O)c1
  -11	2.6	1.2	6	7.7	4	7	-2.8	.	-1
O=C(NCc1cccs1)c1cccnc1C(=O)O
  1	1.8	0.1	.	.	0	.	.	2%	0
O=C(N/N=C/c1ccc(O)cc1O)c1ccc(CN2C(=O)c3cccc4cccc2c34)cc1
  54	0.1	1.5	-15	-1.0	108*	-19	-6.5	5%	93*
O=C(CC1C[C@H](C(=O)N2CCCCC2)[C@@]2(CCc3ccccc3)c3[nH]c4ccccc4c3CCN2C1=O)NCc1ccco1 (some centres undefined)
  .	.	-1.1	36	2.3	.	24	1.1	1%	14
COc1ccc(S(=O)(=O)N2CCC(C(=O)N3CCCC3)CC2)cc1C
  -1	-1.7	0.7	-2	0.3	0	1	0.9	.	-5
CCC(=O)N1N=C(c2ccc(NS(C)(=O)=O)cc2)CC1c1ccc(N(C)C)cc1 (centres undefined)
  23	?	-0.2	-10	-1.1	13	-8	8.2	2%	-3
CSc1nc(N)nc(N(C)C)n1
  -9	2.2	0.3	3	0.0	1	11	0.2	-14%	-8
O=C(Nc1c(C(=O)N2CCOCC2)cnn1-c1ccccc1)c1ccco1
  -17	?	0.4	.	.	-6	.	.	-1%	0
COc1ccc(-c2csc(NC(=O)c3ccco3)n2)cc1
  -7	-4.3	-1.1	.	.	-4	.	.	-2%	-1
O=C(c1ccc(S(=O)(=O)Nc2ccccc2)cc1)N1CCCCCCC1
  -1	-0.1	1.5	-27	-6.1	1	-32	0.3	.	6
O=C(CCNC(=O)Cn1ccc2ccccc2c1=O)NCCN1CCN(c2ccccc2F)CC1
  -12	?	-1.3	.	.	1	.	.	-3%	2
CCOc1ccc(S(=O)(=O)N2CCCCC2)cc1NC(=O)CCc1ccc(OC)cc1
  .	.	-0.3	2	-4.2	.	9	0.2	-7%	3
Cc1c(Nc2cc(N3CCCCCC3)c3nonc3c2[N+](=O)[O-])c(=O)n(-c2ccccc2)n1C
  -33	5.4	-1.5	.	.	?	.	.	-3%	9
COc1ccc(Cl)cc1NC(=O)CN(C)CC(=O)Nc1cc(OC)c(OC)c(OC)c1
  9	3.6	0.9	-7	1.9	-7	-11	-3.8	6%	28
Cc1ccc(S(=O)(=O)NN2C(=O)/C(=C/c3ccccn3)SC2=S)cc1
  9	7.8	1.5	.	.	-1	.	.	-2%	1
O=C(COC(=O)c1ccccc1C(=O)c1ccccc1)NCc1ccc(F)cc1
  -12	-5.8	-0.8	-16	6.3	-3	-16	1.8	3%	-3
COc1ccccc1CCn1cc(C#N)c(=O)[nH]c1=O
  0	1.5	-0.2	3	-3.9	6	-14	0.4	5%	-16
Cc1nc(Nc2ccncc2)c2oc3ccccc3c2n1
  73*	0.5	0.9	28	-12	-1	-7	8.5	2%	47
O=C(c1ccc(S(=O)(=O)N2CCOCC2)cc1)N(c1ccccn1)C1CCCCC1
  19	1.9	0.8	5	-6.4	-2	3	-5.0	0%	-5
N#Cc1c(-c2cccs2)cc(C2CC2)nc1SCC(N)=O
  .	0.2	0.8	.	.	-7	.	.	10%	0
COc1ccc(/C=N/N2CCN(c3ccncc3S(=O)(=O)N3CCCCC3)CC2)cc1
  9	2.4	0.0	.	.	5	.	.	2%	0
O=C(NCc1nc2ccccc2[nH]1)C1=C[C@@H](C2CCCCC2)C[C@@H](OCCCCO)O1
  13	5.3	0.6	-4	3.0	-5	-3	4.2&-0.6	.	4
NC(=O)CC(NC(=O)Cc1ccc(Br)cc1)c1ccc(N2CCC(N3CCCC3)CC2)c([N+](=O)[O-])c1 (centres undefined)
  -23	-1.3	0.3	-2	-5.5	1	10	-8.1	.	-4
CC1CCCCN1c1ncnc2ccccc12 (centres undefined)
  -17	2.0	-0.7	.	.	-11	.	.	4%	39
N#C/C(=C\c1ccccc1)c1ccccn1
  -7	3.4	-1.1	14	-3.9	0	-2	-1.1	-1%	-2
Nc1nnc(CCN2C(=O)CSC2=O)s1
  -22	-3.7	-1.4	.	.	-10	.	.	2%	1
S=C1NC2=C(CCCC2=C2SCCCS2)C(c2ccccc2)N1 (centres undefined)
  19	-2.0	-0.6	-2	-1.5	1	16	-22	.	-7
CCCC(c1nnnn1Cc1ccc(OC)cc1)N1CCN(C(=O)c2ccco2)CC1 (centres undefined)
  7	2.8	0.4	0	0.4	1	-8	1.4	-8%	-3
Cn1c(=O)c(C(=O)NCc2ccc(F)cc2)c(O)c2ccccc21
  1	-1.0	0.4	-11	0.2	-26	-7	-1.1	.	3
O=C(Nc1ccc(C(=O)NCCCN2CCCCC2)cc1)C1=CSCCO1
  15	6.1	-0.1	17	0.1	10	5	2.8	.	-2
COc1ccc(C(=O)c2oc3ccccc3c2N)cc1
  2	-4.3	-0.6	.	.	6	.	.	-1%	-1
COc1ccccc1NC(=O)CCC(=O)N/N=C(/C)c1ccc(C)cc1
  -12	0.7	-0.4	27	2.4	-8	12	6.0	.	4
Nc1cc(N2CCCCC2)c(Cl)cc1[N+](=O)[O-]
  -3	1.0	0.0	.	.	24	.	.	24%	-2
COC(=O)N/N=C/c1cc(C)n(-c2ccccc2)c1C
  -6	-4.3	0.6	17	5.5	-1	17	2.3	.	4
Cc1c(Cl)c([N+](=O)[O-])nn1CCCC(=O)Nc1cc(Oc2ccccc2)cc([N+](=O)[O-])c1
  34	-2.2	0.0	4	1.4	15	5	5.8	11%	4
O=C(O)CCC1(c2ccccc2)NC(=O)NC1=O (centres undefined)
  2	4.1	0.1	21	2.6	3	21	-0.8	?	-2
COCCn1nnnc1C(c1ccc(C(F)(F)F)cc1)N1CCOCC1 (centres undefined)
  -3	1.8	0.9	.	.	-3	.	.	?	2
CSc1ccc(C#N)cc1NC(=O)c1ccc(Cl)nc1
  6	-1.8	0.3	7	-2.1	-15	1	-0.4	0%	-6
CC(C)NCCCOc1ccc(C(C)(C)c2ccccc2)cc1
  2	-0.2	-3.5	.	.	-8	.	.	11%	.
Cc1ccc(NC(=O)c2ccc3ccccc3n2)nc1
  2	1.0	-8.2	.	.	0	.	.	5%	7
CC(=O)Nc1ccc(NC(=O)/C(=C/c2ccco2)NC(=O)c2ccccc2)cc1
  -4	-3.4	0.4	11	0.6	-2	18	-0.1	8%	1
COC(=O)c1ccccc1C(=O)N1CCOCCN(C(=O)c2ccccc2C(=O)OC)CCOCC1
  -4	-2.8	-0.4	.	.	-4	.	.	?	-7

The listing continues.
Second line of a record: T cruzi inh	RanGTP-Impb inh	A1 inh	Ecoli rRNA inh	Ecoli rRNA inh RFP	Calb FLC	Ecoli rRNA inh OD600	MLL AF4-AF9 inh	Vif A3G	Beta cell apopt
CC(OC(=O)CSc1ccc([N+](=O)[O-])cc1)C(=O)NCc1ccccc1 (centres undefined)
  -6	.	0.5	.	.	-4	.	.	-5%	-7
CC(C)c1ccccc1OCC(=O)Nc1ccccc1C(=O)N1CCOCC1
  7	0.7	-0.1	-6	-0.2	-1	-4	0.2	3%	-2
COc1ccc([N+](=O)[O-])cc1NC(=O)CCCOc1ccccc1
  -3	-0.7	0.5	.	.	2	.	.	9%	4
O=C(CN(CC1CCCO1)C(=O)CNS(=O)(=O)c1ccc(F)cc1)NCc1ccccc1 (centres undefined)
  6	1.9	1.0	-3	-0.8	-3	6	-1.5	.	1
O=C(CCc1nc2ccccc2c(=O)[nH]1)N1CCN(C/C=C/c2ccccc2)CC1
  82*	1.1	-0.1	.	.	-8	.	.	?	11
